Bioassay records (PubChem BioAssay)
RE007 growth inh: qHTS Assay for Inhibitors of the HIV-1 protein Vpr | S. pombe RE007 Vpr strain, BacTiter-Glo ATP luminescence, 24 h; control for the full effect not named in the record | Potency, µM (series often up to 92.2 µM), inactives show at the top dose activity change, negative = less growth | hit rate 0.21% among 360,000; active = well fitted falling curve with a large enough effect; inconclusive = small, poorly fitted or top-dose-only effect; inactive = no such curve, though single readings can be large or run the other way;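 also: % is scaled to controls: 0 for no effect and ±100 for the full control effect; nearly all actives have a fitted effect of over 50% in size; the assay follows cell death caused by Vpr and the record does not say whether a fall means rescue or toxicity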
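Fission yeast RE007 carrying one integrated HIV-1 vpr copy, seeded at OD 0.01 in PMG+AL medium with 23 nL pinned compound. Grown 24 h at 30 degrees; viability read by BacTiter-Glo luminescence after 5 min.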
NS1 inh: qHTS Assay for Inhibitors of Influenza NS1 Protein Function. AID 2326, 2010. S. cerevisiae slowed by influenza A NS1, growth recovery by OD600. Potency, µM (doses to about 46.1 µM), for the others: top-dose activity, positive = more growth. hit rate 0.4% among 270,000; also: actives are rising curves; nearly all actives have a fitted effect of over 50% in size
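Read-out: OD600 growth recovery of NS1-expressing budding yeast. Cells grown overnight at 30C in -URA glucose medium, washed, resuspended and diluted 1:100 in 2% galactose assay medium, pH 6.0. Same strain lacking NS1 served as positive control.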
Cruzain inh Det: qHTS Assay for Promiscuous and Specific Inhibitors of Cruzain (with detergent); Cruzipain (Trypanosoma cruzi), P25779; purified cruzain, Z-FR-AMC fluorescence, 0.01% Triton; Potency, µM, for the others: max response, negative = inhibition, usual class: inhibitors; hit rate 0.43% among 200,000; active = well fitted curve in the direction sought with a large enough effect; inconclusive = small, poorly fitted or top-dose-only effect, or another doubt; inactive = no such curve, though single readings can be large; an effect the other way counts as inactive or inconclusive;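 also: plate controls were neutral wells for no effect and buffer without enzyme for full effect; nearly all actives have a fitted effect of over 40% in size; top concentration of the series not given in the record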
Target sequence (P25779 123-467 limits assumed): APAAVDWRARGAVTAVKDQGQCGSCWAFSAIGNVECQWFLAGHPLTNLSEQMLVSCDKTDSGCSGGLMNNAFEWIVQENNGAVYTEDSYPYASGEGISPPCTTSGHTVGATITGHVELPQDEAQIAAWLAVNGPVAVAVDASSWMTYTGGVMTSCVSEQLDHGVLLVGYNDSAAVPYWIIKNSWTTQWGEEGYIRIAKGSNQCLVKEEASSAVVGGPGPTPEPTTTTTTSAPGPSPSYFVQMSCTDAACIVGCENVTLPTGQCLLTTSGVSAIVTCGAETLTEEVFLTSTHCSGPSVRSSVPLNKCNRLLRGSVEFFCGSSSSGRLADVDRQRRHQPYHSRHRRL
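Sodium acetate buffer (100 mM, pH 5.5) containing 5 mM DTT and 0.01% Triton X-100 hosted 1.5 nM cruzain and test compound for 15 min at room temperature. Cleavage of 2 uM Z-FR-AMC was then tracked by fluorescence.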
2A StopGo: High Throughput Screening for Foot and Mouth Disease Virus Antivirals. human cells with a luciferase reporter of 2A StopGo recoding; control for the full effect not named in the record. Potency, µM (highest dose often 57.9 µM), for the others: at the highest dose signal change, negative = less light. hit rate 1.2% among 410,000. AID 1159524, 2015; active = well fitted falling curve with a large enough effect; inconclusive = small, poorly fitted or top-dose-only effect; inactive = no such curve, though single readings can be large or run the other way; tested in HEK293T cells; also: % is scaled to controls: 0 for no effect and ±100 for the full control effect; nearly all actives have a fitted effect of over 45% in size; luciferase light after 4 h
SARS PLP yeast: qHTS of Yeast-based Assay for SARS-CoV PLP; S. cerevisiae expressing SARS-CoV PLpro, growth rescue; control for the full effect not named in the record; Potency, µM (doses to about 32.9 µM), for the others: at the highest dose activity, positive = growth rescue; hit rate 0.19% among 330,000; AID 485353, 2010; also: 0% is about no effect; nearly all actives have a fitted effect of over 55% in size; growth read by luminescence after 48 h
Cruzain inh noDet: qHTS Assay for Promiscuous and Specific Inhibitors of Cruzain (without detergent). Cruzipain (Trypanosoma cruzi), P25779. hit rate 2.3% among 200,000. Potency, µM, without a hit: max response, negative = inhibition, usual class: inhibitors. AID 1476, 2009. purified cruzain, Z-FR-AMC fluorescence, no detergent; active = well fitted curve in the direction sought with a large enough effect; inconclusive = small, poorly fitted or top-dose-only effect, or another doubt; inactive = no such curve, though single readings can be large; an effect the other way counts as inactive or inconclusive;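 also: plate controls were enzyme without inhibitor for no effect and buffer without enzyme for full effect; nearly all actives have a fitted effect of over 40% in size; top concentration of the series not given in the record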
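Purified cruzain at 1.5 nM, pre-incubated 15 min with compound at room temperature in 100 mM sodium acetate pH 5.5, 5 mM DTT, 0.00005% Triton X-100. Reaction started with 2 uM Z-FR-AMC; AMC fluorescence increase over 60 s gives rate.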
LASV entry inh: qHTS for Inhibitors of binding or entry into cells for Lassa Virus; Lassa virus pseudotype entry inhibition, cell reporter; control for the full effect not named in the record; Potency, µM (top dose mostly 37.9 µM), for the others: at the top dose activity change, negative = inhibition, actives largely listed as inhibitors; hit rate 1.2% among 300,000; AID 540256, 2011; active means well fitted inhibition curve with a large enough effect; inconclusive means small, poorly fitted or top-dose-only effect, or effect the other way; inactive means flat fitted curve, though single readings scatter; tested in HEK293 cells; also: % is scaled to controls: 0 for no effect and ±100 for the full control effect; nearly all actives have a fitted effect of over 50% in size; luciferase read-out
Marburg entry inh: qHTS for inhibitors of binding or entry into cells for Marburg Virus. Marburg virus pseudotyped entry inhibition, cell reporter; control for the full effect not named in the record; about a third of the inactives were read at about 46 µM. Potency, µM (highest dose often 37.8 µM), inactives show top-dose activity change, negative = inhibition, usual class: inhibitors. hit rate 1.8% among 300,000; active = well fitted inhibition curve with a large enough effect; inconclusive = small, poorly fitted or top-dose-only effect, or effect the other way; inactive = flat fitted curve, though single readings scatter; tested in HEK293 cells; about a fifth of its hits are not listed in these tables; also: % is scaled to controls: 0 for no effect and ±100 for the full control effect; luciferase read-out
Starred values were filed as active, the others as inactive; u = inconclusive; x = not tested or not shown; & = joins results of further samples; [ ] = dose if it differs, or a comment. Unless noted, calls follow the shape of the dose curve; as a rule, active means well fitted rising curve with a large enough effect; inconclusive means small, poorly fitted or top-dose-only effect; inactive means no such curve, though single readings can be large or run the other way. Potency is read from the fitted curve at half-maximal effect. An unsorted share of the library; any-hit rate near 4.7%.

SMILES	RE007 growth inh	NS1 inh	Cruzain inh Det	2A StopGo	SARS PLP yeast	Cruzain inh noDet	LASV entry inh	Marburg entry inh
O=C(CN1C(=O)NC(c2ccccc2)(c2ccccc2)C1=O)NCCNCCO	-14.3%	7.1%	x	-5.1%	5.7%	x	16.8%[46.1 µM]	u
Cc1ccccc1C(=O)Nc1ccc2nc(N3CCCCC3)cc(C)c2c1	x	x	-7.7%	20.6%	x	-2.5%	-17.3%[46.1 µM]	u
Cc1ccc(OCC(=O)N(Cc2ccco2)C2CCS(=O)(=O)C2)cc1C (stereo not given)	-3.2%	16.1%	x	-27.9%	3.2%	x	x	x
O=C(Nc1ccccc1OC(F)F)c1cc2c(s1)CCC2	3.5%	-14.1%	-6.8%	0.0%	-9.7%	u	x	x
O=C(Cn1cnc2ccccc21)N1CCc2ccccc21	14.1%	3.2%	x	-2.1%	-0.1%	x	x	x
O=C(c1cc(-c2ccc(O)cc2)on1)N1CCCC1	11.0%	-16.1%	x	12.2%	-3.8%	x	u	11.2µM*
C=CCOc1c(CNc2ncn[nH]2)cccc1OC	7.8%	4.4%	3.7%	-8.3%	16.5%	-6.6%	9.3%	-7.6%
CC1CN(C(=S)NC(=O)c2ccco2)CC(C)O1 (stereo not given)	-16.0%	-3.9%	0.6%	-20.6%	10.9%	5.3%	5.4%	-5.8%
Oc1c(Cl)cc(Cl)cc1/C=N/Nc1ncc(Br)cn1	-16.1%	x	x	-15.1%	-2.4%	x	u	u
COC(=O)c1ccccc1NC(=O)Cc1nc(-c2ccccc2)sc1-c1ccc(C)cc1	-2.2%	6.1%	-4.0%	4.4%	16.6%	25.1µM*	-0.3%	-14.4%
CC(C)(CNC(=O)c1cc(Cl)c(O)c(Cl)c1)N1CCCCC1	-4.4%	7.4%	x	-7.2%	0.7%	x	7.4%	26.8%[46.1 µM]
Cc1cccc(N2CCN(C(=O)n3ccnc3)CC2)c1C	-6.3%	-5.0%	2.0%	-18.4%	-10.7%	10.5%	2.1%	u
CC(C)(C)NC(=O)CN(C(=O)c1ccc(CN2CCOCC2)o1)c1ccc2c(c1)OCCO2	-12.0%	-11.3%	-0.5%	-3.3%	-2.8%	-4.1%	4.7%	-6.1%&7.2%
COc1ccc(-n2nnnc2SCc2nc3ccccc3s2)cc1	u	-64.9%	-8.4%	9.4%	3.6%	-29.6%	u	u
COc1ccc(C(=O)NC2=Nc3ccccc3N=C(C)C2c2ccccc2)cc1 (stereo not given)	18.6%	-1.4%	x	39.6%[activator]	0.1%	x	u	-6.0%[46.1 µM]
CCN(CC)CCCN1C(=O)C(O)=C(C(=O)c2ccc(C)o2)C1c1ccc(C)o1 (stereo not given)	-3.1%	1.3%	-4.4%	-16.5%	-34.5%	2.8%	8.0%	8.0%
O=C(c1cc(COc2ccc(F)cc2Cl)on1)N1CCc2sccc2C1	3.8%	1.9%	x	13.1%	-1.7%	x	x	x
O=C(CCc1ccc(O)c(O)c1)N/N=C/c1cc2c(cc1[N+](=O)[O-])OCO2	-2.0%	9.1%	x	-19.5%	u	x	x	x
Cc1cc(N2CCOCC2)n2ncc(-c3ccccc3)c2n1	-14.6%	-18.6%	-2.9%	-64.2%	-11.6%	16.0%	2.59µM*	u
C=C(C)CSc1nc(N)c(C#N)c(-c2ccc(C)cc2)c1C#N	-4.3%	1.4%	-5.3%	x	x	-6.2%	-9.1%	-15.2%
Cc1cc(=O)[nH]c(N/N=C/c2c[nH]c3ccccc23)n1	-7.4%	7.2%	x	29.7%	-0.8%	x	x	x
CCCc1c(O)nc(SCC(=O)NCCc2ccc(OC)c(OC)c2)[nH]c1=O	-10.6%	-0.9%	3.6%	-3.3%	-0.2%	0.5%	-7.4%	12.9%&12.9%
COC(=O)COc1cccc(NS(=O)(=O)c2cccc([N+](=O)[O-])c2)c1	4.9%	-1.2%	x	-13.3%	0.0%	x	16.1%	19.3%[46.1 µM]
Cn1c(=O)oc2cc(S(=O)(=O)Nc3ccc(C(=O)O)cc3)ccc21	-10.2%	x	-0.1%	-11.8%&-22.3%	x	-7.0%	7.8%[46.1 µM]	-2.7%[46.1 µM]
COc1ccc(C)cc1-n1nnnc1SCC(=O)NC1CC1	-2.5%	x	x	-2.0%	0.2%	x	11.6%	14.1%
Next results.
SMILES	RE007 growth inh	NS1 inh	Cruzain inh Det	2A StopGo	SARS PLP yeast	Cruzain inh noDet	LASV entry inh	Marburg entry inh
O=C(O)CCC(=O)N1CCN(c2nc(-c3ccccc3Cl)c3cc(Br)ccc3n2)CC1	2.0%	x	-21.8%	0.0%	-29.1%	u	-13.4%	-1.3%&-1.3%
COc1ccc(NC(=O)C2CCCCN2N)cc1OCC(C)C (stereo not given)	-11.4%	20.5%	-4.6%	x	-2.3%	-7.7%	20.8%	-29.4%
CSCCC(NC(=O)c1ccccc1Cl)C(=O)NNC(=O)c1csc(N2CCOCC2)n1 (stereo not given)	1.7%	x	x	-3.1%	-1.5%	x	21.8%[46.1 µM]	u
CC(C)Oc1ccc(CNC(=O)Oc2ccccc2)cc1	1.3%	0.0%	x	39.6%[activator]	-8.5%	x	x	x
CC(=O)Nc1nnc(SCC(=O)Nc2ccc(N3CCOCC3)c(Cl)c2)s1	-3.2%	7.1%	x	27.7%	0.9%	x	x	x
Cc1ccccc1NCc1ccc([N+](=O)[O-])s1	0.8%	-14.9%	x	-11.3%	-6.9%	x	-18.2%	-4.2%
CC1=CC(C)(C)N(C(=O)CCl)c2ccccc21	-2.0%	6.4%	x	-19.3%	0.9%	x	x	x
COc1ccc(OCCCC(=O)NCCc2nc3ccccc3[nH]2)cc1	0.1%	1.0%	x	-21.9%	-1.1%	x	0.2%	-3.0%[46.1 µM]
O=C(NC(NCc1ccccn1)(C(F)(F)F)C(F)(F)F)c1ccco1	-1.3%	4.6%	6.3%	-8.5%	5.1%	5.7%	-1.4%	18.1%
Cc1cc(C(=O)NNc2cc(Cl)ccc2Cl)no1	107.3%	-50.9%	x	2.0%	-4.3%	x	13.2%	-9.3%
CCCCc1nc(C(N)=O)c2[nH]c(=O)n(-c3ccc(OC)c(OC)c3)c2n1	-9.6%	-2.7%	x	-10.6%	1.9%	x	x	x
CCCCc1sc(-c2c(C#N)c(N)nc3c2CCCCC3)cc1[N+](=O)[O-]	-5.3%	-0.5%	-5.8%	u	-0.3%	-4.5%	u	u
CCc1ccc(NC(=O)CCc2ccc(C)o2)cc1	3.8%	-38.8%	x	39.5%[activator]	0.3%	x	x	x
COc1ccc2cc(S(=O)(=O)NCCCN3CCOCC3)ccc2c1	1.1%	5.1%	-3.3%	-1.9%	-4.0%	-4.7%	-17.2%	u
Cc1ccc(-n2nc(-c3ccc(F)cc3)c3cnc4cc5c(cc4c32)OCO5)cc1C	x	x	-2.4%	2.7%	x	3.8%	-10.1%[46.1 µM]	8.0%[46.1 µM]
Cc1nc2ccccn2c1C(=O)N=Nc1c(O)[nH]c2ccccc12	-2.8%	25.4%	2.7%	25.9%	-2.2%	u	10.4%	u
COc1ccc(CNC(=O)c2ccc(S(=O)(=O)N3CC(C)CC(C)C3)cc2)cc1OC (stereo not given)	-27.2%	x	x	-21.1%	x	x	-21.2%	u
COc1ccc(CNC(=O)C(NS(=O)(=O)c2cccc3nsnc23)C(C)C)cc1 (stereo not given)	0.0%	-4.0%	x	-8.4%	-2.3%	x	0.7%[46.1 µM]	8.2%[46.1 µM]
O=[N+]([O-])c1ccc2c(c1)C(=NO)c1cc(F)ccc1-2	-12.6%	x	x	-20.4%	x	x	-4.9%	-16.8%
O=C(NCCN1CCN(C(=O)c2cccs2)CC1)C(=O)Nc1ccc(Br)cc1	1.3%	-8.5%	-1.4%	u	-4.1%	0.2%	-21.7%	u
Cc1ncc([N+](=O)[O-])n1CC(=O)Nc1cc(Cl)ccc1Cl	-1.6%	-0.7%	x	-13.1%	0.7%	x	x	x
CCN(CC)CC(=O)Nc1cc(N(C)C)nc2ccccc12	-7.3%	1.3%	x	-23.8%	-0.4%	x	-12.2%	u
Cc1cc(C)nc(SCCC(=O)Nc2cccc3ccccc23)n1	5.7%	-3.2%	-0.5%	-0.7%	24.9%	0.8%	-14.8%	-13.9%
C=CCC1c2cccc(C(=O)O)c2C(=O)N1c1cccc(OC)c1 (stereo not given)	-6.9%	-0.6%	x	-5.7%	13.1%	x	x	x
COc1cccc(NC(=O)CSc2nc3c(oc4ccccc43)c(=O)n2Cc2ccco2)c1	x	x	-3.2%	-4.4%	x	8.6%	x	-18.8%[46.1 µM]
Carrying on.
SMILES	RE007 growth inh	NS1 inh	Cruzain inh Det	2A StopGo	SARS PLP yeast	Cruzain inh noDet	LASV entry inh	Marburg entry inh
COc1ccc(N2CCN(C(C)C(=O)N3CCc4ccccc43)CC2)cc1 (stereo not given)	12.7%	11.1%	x	-19.9%	0.9%	x	x	5.7%[46.1 µM]
Cc1cc(C)c(NC(=O)NC2CCCCC2)c(C)c1	-2.4%	10.1%	1.4%	0.0%	-15.5%	10.1%	-10.7%	-0.5%
Cc1cccc(NC(=O)N2CCN(C(=O)c3nsc4ccccc34)CC2)c1C	x	x	-4.6%	-19.7%	x	11.2%	0.9%[46.1 µM]	x
CC(=O)N1CCN(CC(=O)NC(=O)Nc2ccc3c(c2)OCCO3)CC1	18.6%	x	x	-2.5%	-0.3%	x	-17.9%	-0.7%
CC1CCCCC12NC(=O)N(CC(=O)NC1CCCc3ccccc31)C2=O (stereo not given)	-12.8%	2.9%	-1.6%	-1.6%	2.4%	7.9%	9.5%	6.4%
O=C(O)C12CC3CC(C1)CC(n1ncc(N4CCN(c5ccccc5)CC4)c(Cl)c1=O)(C3)C2	3.5%	19.4%	-8.0%	-17.7%	-2.1%	5.1%	5.1%	6.5%
CC(=O)Nc1ccc(S(=O)(=O)N2CCN(CCc3ccccc3)CC2)cc1	4.5%	0.0%	x	-4.5%	-3.8%	x	x	x
COc1ccc(C2=CC(=O)OC3(CCCCC3)O2)cc1	-7.8%	-59.6%	-5.5%	-1.4%	-10.8%	-2.1%	-7.1%	-9.0%
